Assay outcomes as filed in PubChem.
Sa ugtP lethal: growth inhibition of ugtP-null S. aureus, primary screen, RN4220 ugtP deletion, OD600; 16 h; some inactives read as strong as hits; growth inhibition, % (no concentration beside the values); 330,000 tested, 0.54% active; AID 1259309, 2017;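 active means z-score under -3 and OD600 up to 0.15 on both plates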;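 further: plate controls were untreated wells for no effect and antibiotic for full effect; wells of about 80 µL received 100 nL stock; the first replicate is given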
PrP UTR inh: inhibition of PrP 5' UTR reporter expression; cell-based PrP 5' UTR mRNA reporter, plate reader; inhibition, % (no concentration beside the values); 340,000 tested, 0.35% active;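 active means every replicate at 50% or more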;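 further: 0 = median of the neutral control wells; tested in H4 reporter cells; numbers are from one replicate; inactives centre near -14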
Mtb hypoxia inh: PubChem AID 1159583; M. tuberculosis hypoxia-regulated fluorescent reporter, fluorescence; fluorescence inhibition, % (concentration not given with the values); 300,000 tested, 0.1% active;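 active means 35 to 45% if threefold the growth effect, above 45% if 1.5-fold the growth effect; inactive means the rest, general growth blockers included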;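 further: wells of about 50 µL received 100 nL stock; 0% = vehicle wells and 100% = reference inhibitor wells; whole bacteria with a GFP reporter of the hypoxia response; strong numbers were not always called active; many hits fall short of the cut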
BJeLR viability: MLPCN primary cell-based screen for lethality selective to Ras in HRASV12 cells; BJeLR (HRASV12) viability, CellTiter-Glo ATP luminescence, 48 h; reference of the scale not given here; inhibition, % (concentration not given with the values); 300,000 tested, 0.17% active; AID 1554, 2009;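 active means replicate mean above 50%; inconclusive means above 50% but judged a plate artefact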;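 further: 50 nL library stock added to about 25 µL; numbers are from one replicate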
Sa RN4220 lethal: growth inhibition of S. aureus RN4220, primary screen, OD600; inhibition, % (no concentration beside the values); 330,000 tested, 0.33% active; 16 h; AID 1259311, 2017;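 active means z-score of -3 or lower and OD600 up to 0.18 on both plates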;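 further: plate controls were untreated cells for no effect and reference antibiotic for full effect; stock transfer was 100 nL into about 80 µL; one replicate is shown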
Bead autofluor: flagged as autofluorescent in microsphere protease counterscreen; 360,000 tested, 3.1% active; compound autofluorescence counterscreen, microsphere flow cytometry; active compounds read high; fluorescence intensity (no concentration beside the values);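 active means at least 3 SD above the mean of all compounds, about 16000 in these data; inconclusive means too few beads counted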;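 further: 100 nL of 1 mM stock went into each well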
Mtb hypoxia inh growth: recorded beside Mtb hypoxia inh, whose call it bears; growth inhibition, %; measured here: M. tuberculosis growth (absorbance);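 0% = vehicle and 100% = reference antibiotic; read after six days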
The depositor's hits bear a star; u = inconclusive; x = not tested or not shown.

Structure,Sa ugtP lethal,PrP UTR inh,Mtb hypoxia inh,Mtb hypoxia inh growth,BJeLR viability,Sa RN4220 lethal,Bead autofluor
CC(C(=O)NC(C)(C)C)N(C(=O)CS(=O)CC(=O)Nc1ccc(F)cc1)C1CCCC1 (stereo not given),0.9,-9.3,2.4,3.4,0.6,4.3,5368
Cc1cc(NS(=O)(=O)c2ccc(NC(=O)CCCOc3ccc(Cl)cc3)cc2)no1,16.9,-10.8,x,x,-2.7,-1.0,3822
CSc1nc(SCC(=O)O)c2c3c(sc2n1)COC(C)(C)C3,13.3,x,6.6,10.2,4.2,-0.2,4790
O=C(O)CC/C(=C\c1ccc(N2CCOCC2)c([N+](=O)[O-])c1)c1nc2ccccc2s1,-15.2,-11.3,6.6,2.5,11.7,16.1,4200
Fc1cccc2sc(Nc3nc4cc5c(cc4s3)OCO5)nc12,2.2,-68.6,0.5,-0.4,-13.0,-2.2,2500
CCOC(=O)c1sc(=S)sc1SCc1cccc(C(F)(F)F)c1,x,-7.8,x,x,-10.7,x,2383
CCOc1ccc(S(=O)(=O)NC2CCCC2)cc1C,1.9,-21.4,6.6,8.8,2.4,-0.8,4779
COc1ccc(NC(=O)CCCC(=O)OCC(=O)c2cccc(OC)c2)cc1,3.2,-9.6,-10.6,-9.4,-9.4,2.4,4466
CC(C)c1cc(C(=O)N2CCCC(C(=O)c3ccc4ccccc4c3)C2)on1 (stereo not given),1.9,19.9,5.1,-3.1,12.5,-3.4,4406
Cn1c(-c2ccc(F)cc2)cnc1NCc1ccc(F)cc1,-2.0,-12.6,1.4,9.3,-8.0,-0.5,3782
COc1ccccc1Cc1noc(C(C)(C)NC(=O)c2ccccc2)n1,1.4,-6.8,2.9,-2.5,4.6,-0.3,17677*
CC(C)Oc1cccc(C(=O)Nc2ncn[nH]2)c1,-4.3,-14.6,-5.1,7.5,-6.9,-0.3,3566
O=C(Cc1ccc(Cl)cc1)c1ccc(O)cc1,49.9,-63.7,21.2,24.9,3.8,2.1,6650
O=C(O)c1ccc(-n2c(O)c(C=C3N=c4ccccc4=N3)sc2=S)cc1,0.5,x,3.3,7.1,-1.9,-9.8,5208
COc1ccccc1N(C)S(=O)(=O)c1ccc(Cl)c(C(=O)NC2=NCCS2)c1,10.1,-6.3,12.6,-1.2,-7.1,7.5,3134
O=C(c1ccc(Cl)c(S(=O)(=O)N2CCOCC2)c1)N1CCN(Cc2ccccc2)CC1,0.4,-0.9,16.3,10.1,4.1,1.7,3566
COc1cc(CCC(=O)Nc2nnc(-c3cccnc3)s2)cc(OC)c1OC,3.8,-0.1,-0.7,10.3,-3.1,1.1,4620
O=C(Nc1cccc(C(=O)Nc2ccc(F)cc2F)c1)c1ccccc1,-3.5,-17.7,-6.7,-1.0,-6.5,4.4,4447
CCC(C)(C)NC(=O)C1CCN(c2nc(OC)nc(OC)n2)CC1,5.0,-25.6,7.1,7.7,-8.1,4.5,4215
CC1(C)CC(=O)C2=C(C1)c1c(ccc3ncccc13)NC2c1cccs1 (stereo not given),-3.4,-14.9,x,x,7.9,3.9,2725
CC(C)CCNC(=O)NC(=O)COc1c(F)c(F)cc(F)c1F,-1.6,-3.2,x,x,-0.3,3.2,3209
OCCNCCCOc1ccc(Cl)cc1Br,-9.6,-15.4,3.9,2.9,-2.7,-4.9,22475*
O=C(NCc1ccc2c(c1)OCO2)c1ccccc1Cl,6.3,-23.0,22.9,6.9,3.4,3.7,6446
O=C1OC(c2ccc(O)cc2)(c2ccc(O)cc2)c2ccccc21,0.3,-5.1,0.3,12.8,-1.1,7.4,5899
O=C1C2C(C(=O)N1c1ccccc1)N1CCCN1C2c1ccccc1 (stereo not given),1.2,-19.5,8.2,0.5,7.5,2.5,2502
O=C1CC(N2CCN(c3ccc(Cl)cc3)CC2)C(=O)N1c1ccc(F)cc1 (stereo not given),2.6,-5.4,-4.5,-9.4,2.4,1.9,3880
COc1cccc(CNC(=O)C2CCN(S(=O)(=O)c3ccc(Br)s3)CC2)c1,2.8,-10.5,6.3,4.6,-9.6,-3.9,3733
COc1ccc(OC)c(C2CC(=O)Nc3c2c(=O)[nH]c2ncnn32)c1 (stereo not given),5.5,-22.4,-5.4,-1.7,-1.8,8.5,3353
CC(CCc1ccccc1)NC(=O)CN1CCc2ccccc2C1 (stereo not given),9.3,-37.0,1.2,2.4,20.0,4.8,3144
COc1ccc(C2C(C(C)=O)=C(O)C(=O)N2CCc2ccccc2)c(OC)c1 (stereo not given),-6.8,1.0,-4.2,4.4,-5.7,1.0,16192*
COc1ccc(/C=C(\NC(=O)c2cccs2)C(=O)Nc2cccc3ccccc23)cc1OC,10.8,-11.9,7.3,4.7,-4.8,9.9,2570
CC(C)CC1(C(=O)NCc2cc(F)cc(C(F)(F)F)c2)C=CCN1C(=O)c1ccccc1 (stereo not given),7.0,-4.1,12.6,10.0,-11.8,3.5,2761
Cc1cccnc1NC(=O)c1ccc(OCc2c(C)noc2C)cc1,4.1,-20.1,12.0,10.3,0.4,4.7,u
CCc1nc2ccccc2c(=O)n1NCCc1ccccc1,-6.0,-30.4,0.8,7.0,14.3,6.8,2518
Cc1ccc(CNc2oc(C)nc2C#N)cc1,-1.1,-4.9,7.3,7.2,-3.6,4.5,4499
COc1ccc2oc(C(=O)NCCC(C)C)c(C)c2c1,-2.2,-58.0,-1.6,2.9,-4.2,-2.5,3156
COCc1cc(C=NNC(=O)COc2ccccc2)ccc1OC,2.0,x,1.0,-3.5,x,3.4,x
CCCCc1ccc(NC(=O)CN2C(=O)C3CCCCC3C2=O)cc1 (stereo not given),6.0,-29.1,10.4,1.0,3.6,-0.1,4752
C=CCNC(=S)NNC(=O)C(CCC(C)C)CC(C)(C)O (stereo not given),-0.3,-19.3,-23.0,-8.6,4.3,1.5,u
Cc1cc(-n2c(C)cc(C(=O)CN3C(=O)NC4(CCCCC4)C3=O)c2C)no1,10.1,-46.4,7.7,11.1,-4.5,1.8,4694
CCCOc1ccc(-c2c(C(=O)NN=CC3CCCCC3)nnn2-c2nonc2N)cc1,-2.7,x,2.6,4.4,x,-7.7,x
CC1(c2nnc(-c3cccc(Cl)c3)o2)CC(c2ccc(Br)cc2)=NO1 (stereo not given),-9.3,-9.7,-4.3,-9.9,-6.1,1.6,4155
Cc1ccc(CSc2nnc(CS(=O)Cc3ccc(Cl)cc3Cl)n2C)cc1 (stereo not given),1.9,x,0.1,-1.0,12.3,5.7,9937
Brc1ccc(-c2csc(/N=C/N3CCOCC3)n2)cc1,x,-40.0,x,x,-7.3,x,3206
O=C(N[C@@H](Cc1ccccc1)C(=O)OCc1ccccc1)c1nc[nH]c1C(=O)NC1CCNCC1,-7.3,-14.3,4.9,14.1,19.7,-16.4,3719
CCOCCCNC(=S)N1CCCN(c2nc3cc(C)cc(C)c3cc2C#N)CC1,2.2,5.8,2.7,3.7,-6.1,7.0,4900
O=C(Nc1cccnc1Cl)c1cc(-c2ccccc2O)on1,-15.6,-81.1,4.5,6.6,6.2,0.2,3974
CCCCn1c(N)c(N(CC)C(=O)c2cc(S(=O)(=O)N3CCN(CC)CC3)ccc2Cl)c(=O)[nH]c1=O,-0.1,-15.9,0.5,7.4,2.7,0.7,6002
CCOC(=O)c1ccc(-n2c(N)c(C(=O)NCC3CCCO3)sc2=S)cc1 (stereo not given),5.8,-6.4,7.8,9.3,2.3,4.4,u
CC1CCc2c(C(=O)NCc3cccnc3)csc2C1 (stereo not given),1.7,4.8,1.4,3.4,-2.3,6.7,2052
CCOC(=O)c1c(-c2ccc(C)cc2)csc1/N=C/N(C)C,x,-10.7,x,x,2.2,x,4408
CCOC(=O)CNC(=O)COc1coc(CN2CCN(c3ccccc3)CC2)cc1=O,3.7,-20.9,3.7,0.1,2.4,2.3,5349
COC(=O)[C@@H](NC(=O)Nc1ccc(S(N)(=O)=O)cc1)C(C)C,14.7,-3.5,3.5,1.0,-3.6,3.5,8338
CC(C)Cc1nnc(NC(=O)C2CSC3(C)CCC(=O)N23)s1 (stereo not given),2.9,-23.4,9.2,-2.0,1.8,3.3,6579
CCOC(=O)CSc1nnc(CNC(=O)c2ccc([N+](=O)[O-])cc2)n1C,3.7,6.2,0.6,1.5,3.8,2.6,3235
CCCCN1C(=O)CCC(C(=O)O)C1c1ccccc1 (stereo not given),5.3,-23.5,15.4,11.1,-14.0,6.6,3808
COc1ccccc1C=Nn1c(N)c(C(=O)NC2CCCCC2)c2nc3ccccc3nc21,7.9,x,4.5,7.6,x,0.5,x
COc1cc2c(OC(C)=O)c3c(c(-c4ccc5c(c4)OCO5)c2cc1OC)C(=O)OC3,-6.3,-1.1,x,x,9.1,-2.4,4335
CN1CCN(NC(=O)Nc2cccc(F)c2)CC1,2.4,-24.3,-2.4,-6.3,6.3,0.4,4472
O=C(NCc1cccc(F)c1)c1ccc2nc(N3CCOCC3)sc2c1,7.5,-12.8,-4.5,3.8,-0.8,-1.6,6016

A section from further up, for reference:
Structure,Sa ugtP lethal,PrP UTR inh,Mtb hypoxia inh,Mtb hypoxia inh growth,BJeLR viability,Sa RN4220 lethal,Bead autofluor
COc1ccc(/C=C(\NC(=O)c2cccs2)C(=O)Nc2cccc3ccccc23)cc1OC,10.8,-11.9,7.3,4.7,-4.8,9.9,2570
CC(C)CC1(C(=O)NCc2cc(F)cc(C(F)(F)F)c2)C=CCN1C(=O)c1ccccc1 (stereo not given),7.0,-4.1,12.6,10.0,-11.8,3.5,2761

(list continues)
Structure,Sa ugtP lethal,PrP UTR inh,Mtb hypoxia inh,Mtb hypoxia inh growth,BJeLR viability,Sa RN4220 lethal,Bead autofluor
Cn1ncc(Cl)c1C(=O)N1CCN(c2ccc(Cl)c(Cl)c2)CC1,7.2,1.0,15.2,0.0,3.6,-1.5,4298
O=C(Nc1ccccc1)NC1CS(=O)(=O)CC1O (stereo not given),-1.3,3.8,3.7,10.9,8.2,-0.5,22098*
COCCCNCCCOc1ccc(Cl)cc1Br,0.5,-3.7,16.5,2.8,3.0,3.1,4541
CCOC(=O)C1(Cc2ccccc2C)CCCN(Cc2cn(C)nc2C)C1 (stereo not given),6.9,-12.9,-7.0,5.5,3.1,2.2,5011
COC(=O)C1=C(C)N(Cc2ccccc2)C(=NCCCOC(C)C)NC1c1ccccc1 (stereo not given),-7.3,x,-1.4,11.2,x,3.7,x
COc1ccc(C)cc1NC(=O)CN1C(=O)c2ccccc2S1(=O)=O,6.8,-8.2,x,x,-2.4,0.6,4904
COC(=O)[C@H]1C2CCC(C(=O)OC)(CC2)[C@H]1C(=O)OC,3.4,0.2,2.1,1.3,9.3,0.9,3777
CCN(CC(=O)NC1CC1)S(=O)(=O)c1ccccc1,2.1,3.2,14.2,1.5,-10.1,2.3,6157
COc1cc2c(cc1OC)CN(C(=O)c1ccc(-c3ccccc3)cc1)CC2,6.1,-5.2,9.0,-2.3,2.0,17.8,4165
Cc1ccc(C(=O)NNC(=O)Cc2nc3nc(C)cc(C)n3n2)cc1,14.6,-2.1,0.2,-13.0,-4.5,7.3,4281
O=C1CC(N2CCN(S(=O)(=O)c3ccccc3)CC2)C(=O)N1c1ccccc1 (stereo not given),11.4,-32.3,5.0,-3.6,-3.0,2.4,4526
Cc1oc(-c2cc(F)ccc2F)nc1CN1CCC(C(=O)N2CCOCC2)CC1,3.9,-15.6,4.8,1.4,-1.6,2.6,5197
CC1c2cccn2CCN1S(=O)(=O)c1ccccc1 (stereo not given),1.3,-14.2,4.7,2.0,x,6.0,7873
CC(C)c1cc(C(=O)NCCc2ccccc2)no1,-0.1,-60.0,-3.2,8.8,5.0,3.3,3992
Cc1ccc([N+](=O)[O-])c(C(=O)N/N=C/c2cccnc2)c1,x,-0.6,x,x,3.5,x,6478

Full records, quoted from the list. Order of screens: Sa ugtP lethal, PrP UTR inh, Mtb hypoxia inh, Mtb hypoxia inh growth, BJeLR viability, Sa RN4220 lethal, Bead autofluor
CCN(CC(=O)NC1CC1)S(=O)(=O)c1ccccc1 is listed as 2.1, 3.2, 14.2, 1.5, -10.1, 2.3, 6157
CCOC(=O)C1(Cc2ccccc2C)CCCN(Cc2cn(C)nc2C)C1 (stereo not given) is listed as 6.9, -12.9, -7.0, 5.5, 3.1, 2.2, 5011
CC1c2cccn2CCN1S(=O)(=O)c1ccccc1 (stereo not given) is listed as 1.3, -14.2, 4.7, 2.0, x, 6.0, 7873
